eIF4H FP inh: inhibitors of RNA binding by human eIF4H | eIF4H fluorescence polarization binding assay | Q15056 | hit rate 0.94% among 290,000 | inhibition, % at 35 µM;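 active = 50% or more with normal probe brightness, or confirmed in later tests; inconclusive = above 50% with abnormal brightness, or retests that disagree; inactive = below 50% or failed in later tests; about a fifth of its hits are not listed in these tables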;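 note: calls also rest on retests at 20 µM and on dose response follow-up; 0% = protein and probe with vehicle and 100% = probe without protein; strong numbers were not always called active; many hits fall short of the cut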
Rce1 inh: inhibitors of yeast Ras-converting enzyme | calls only | yeast membranes, quenched prenylated peptide cleavage fluorescence | hit rate 0.27% among 290,000 | Q03530;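 active = fall in fluorescence gain of 50% or more versus controls, with final raw signal at or below 3038400; inconclusive = same 50% fall but final raw signal above 3038400; inactive = fall in fluorescence gain under 50%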;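 note: plate controls were neutral control wells for no effect and wells lacking membranes for full effect; tested at 10 µM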
Target sequence (Q03530 whole entry, looked up): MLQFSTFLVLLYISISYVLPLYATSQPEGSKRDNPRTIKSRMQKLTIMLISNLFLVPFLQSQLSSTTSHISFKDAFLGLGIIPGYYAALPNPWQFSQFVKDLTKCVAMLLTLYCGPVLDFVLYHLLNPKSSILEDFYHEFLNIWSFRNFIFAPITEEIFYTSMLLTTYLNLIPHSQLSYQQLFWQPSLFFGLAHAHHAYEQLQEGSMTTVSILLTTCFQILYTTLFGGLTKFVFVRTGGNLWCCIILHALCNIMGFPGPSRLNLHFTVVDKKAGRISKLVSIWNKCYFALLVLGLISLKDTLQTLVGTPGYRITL
MT1-MMP act inh: MT1-MMP (human) activation inhibition; HT1080 RFP-PRO-GFP cells, GFP/RFP ratio fluorescence, overnight; percent of plate control window, DMSO zero; P50281; AID 651647; hit rate 0.061% among 360,000; GFP/RFP ratio change, % at 20 µM;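 active = GFP/RFP ratio change of at least 30% with cell ATP level not reduced by more than half and red fluorescence within 50% of control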; note: strong numbers were not always called active
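Assay system – RFP-PRO-GFP reporter HT1080 cells · Compound dosing – single dose of 20 µM compound, 1% DMSO final · Incubation – overnight compound exposure at 37 °C · Measure – GFP/RFP fluorescence ratio · Benchmarks – DMSO wells and RFP-L50D-GFP cells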
HIV Env fusion: inhibitors of HIV Env-mediated cell fusion | HeLa-JRFL Env/CEM21 cell fusion, luciferase | inhibition, % at 12.3 µM | hit rate 1.1% among 360,000;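 active = mean replicate inhibition score of at least 50 and every replicate individually at or above 50; inconclusive = only one of the two criteria met; inactive = mean below 50 and not all replicates reaching 50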;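 note: 0% = plate neutral controls and 100% = maraviroc near 300 nM; one replicate is shown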
CSC inhib: blocks cancer stem cells | cancer stem cell-like cells viability, luminescence | inhibition, % at 7.5 µM | hit rate 1.1% among 300,000;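 active = mean at 75% or more and at least half the replicates too; inconclusive = mean and replicates disagree; tested in HMLE shEcad cells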;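 note: 0% = median of negative and 100% = median of positive control wells; the first replicate is given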
PABP FP inh: blocks human PABP binding to poly(A) RNA; P11940; fluorescence polarization; inhibition, % at 35 µM; hit rate 1% among 290,000;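 active = 50% or more with normal probe brightness, or confirmed in later tests; inconclusive = above 50% with abnormal brightness, or retests that disagree; inactive = below 50% or failed in later tests; about a fifth of its hits are not listed in these tables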;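 note: calls also rest on retests at 20 µM and on dose response follow-up; controls were probe without protein and protein plus probe with vehicle; some compounds called inactive have numbers as strong as hits; many hits fall short of the cut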
Target sequence (P11940 whole entry, looked up): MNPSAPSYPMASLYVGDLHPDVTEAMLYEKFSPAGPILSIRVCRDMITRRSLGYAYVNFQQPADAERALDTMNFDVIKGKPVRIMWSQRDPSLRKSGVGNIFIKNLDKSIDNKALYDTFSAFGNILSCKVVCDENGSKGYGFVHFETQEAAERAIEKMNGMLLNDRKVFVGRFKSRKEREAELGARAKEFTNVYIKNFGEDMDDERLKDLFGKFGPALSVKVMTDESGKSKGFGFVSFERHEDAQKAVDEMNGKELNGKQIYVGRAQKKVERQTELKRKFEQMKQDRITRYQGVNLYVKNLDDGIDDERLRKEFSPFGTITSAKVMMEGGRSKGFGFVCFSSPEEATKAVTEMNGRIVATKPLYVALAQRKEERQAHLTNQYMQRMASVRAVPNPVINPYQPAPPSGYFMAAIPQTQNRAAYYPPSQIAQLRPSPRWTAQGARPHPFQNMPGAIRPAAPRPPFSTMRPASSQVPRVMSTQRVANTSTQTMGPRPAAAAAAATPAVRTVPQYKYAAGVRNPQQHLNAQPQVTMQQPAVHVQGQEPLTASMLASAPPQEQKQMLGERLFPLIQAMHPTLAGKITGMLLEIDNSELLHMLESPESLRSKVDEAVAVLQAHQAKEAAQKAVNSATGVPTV
UUG fidelity: alters start codon recognition fidelity in yeast; AID 602363; activity score, % at 18.7 µM; S. cerevisiae UUG-firefly luciferase reporter, luminescence/redox ratio; hit rate 0.13% among 350,000;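 active = replicate mean at a twofold rise or more, about +100% in these data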;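 note: firefly luciferase made from a UUG start codon reports start codon fidelity; reporter light over untreated wells divided by growth signal over untreated wells; some hits fall short of that in this replicate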
eIF4H FP inh retest: also measured in eIF4H FP inh; calls as there; inhibition, %; compound at 20 µM; confirmation average;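 mean of two retest wells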
PABP FP inh retest: further read-out of PABP FP inh, marked with its call; inhibition, %; compound at 20 µM; confirmation repeats;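 mean of two retest wells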
MT1-MMP act inh RFP: also measured in MT1-MMP act inh; calls as there; RFP signal change, %; measured here: RFP expression control read;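 0 = vehicle wells; hits needed this value within 50% of zero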
* = called active by the depositor; i = inactive; ? = inconclusive; / = no result given.

The first 2 compounds, to show the layout:
SMILES	eIF4H FP inh	Rce1 inh	MT1-MMP act inh	MT1-MMP act inh RFP	HIV Env fusion	CSC inhib	PABP FP inh	UUG fidelity	others
Cc1cccc(NC(=O)C(=O)NNC(=O)c2ccc(C(C)(C)C)cc2)c1	19.7	i	4.1	4.6	39.8	8.2	-1.3	-13.3
CC(=O)NNc1nc(-c2ccccc2)c2cc(Cl)ccc2n1	/	/	3.0	0.5	2.8	/	/	-3.7

Main list, from the start:
SMILES	eIF4H FP inh	Rce1 inh	MT1-MMP act inh	MT1-MMP act inh RFP	HIV Env fusion	CSC inhib	PABP FP inh	UUG fidelity	others
Cc1cccc(NC(=O)C(=O)NNC(=O)c2ccc(C(C)(C)C)cc2)c1	19.7	i	4.1	4.6	39.8	8.2	-1.3	-13.3
CC(=O)NNc1nc(-c2ccccc2)c2cc(Cl)ccc2n1	/	/	3.0	0.5	2.8	/	/	-3.7
COC(=O)c1nn(-c2ccccc2)c(Sc2ccc(Cl)cc2)c1/C=N/O	-1.9	i	-11.4	-17.9	/	1.1	-2.3	-7.3
O=C(CC1CCCCC1)NCc1nc(-c2ccccc2)no1	9.9	i	-1.2	2.6	-17.9	2.9	13.2	/
Cc1onc(-c2ccccc2)c1C(=O)Nc1cccc2nsnc12	3.1	i	-4.5	2.2	/	-16.2	-4.4	-23.4
O=C(CNC(=O)Cc1ccccc1)N=Nc1c(O)[nH]c2ccccc12	2.7	/	1.3	2.2	5.2	-9.8	6.2	-10.5
CC(=O)c1ccc(OCC(=O)OCC(=O)N(CC(C)C)c2c(N)n(Cc3ccccc3)c(=O)[nH]c2=O)cc1	/	/	0.2	5.2	-14.5	/	/	-8.3
NS(=O)(=O)c1ccc(CNC(=O)/C=C/c2c(Cl)cccc2Cl)cc1	9.0	i	/	/	/	-4.6	-0.6	/
CCOC(=O)c1nn(-c2ccc(OCC)cc2)c2nc(-c3cccc(OC)c3)c(C#N)c(=O)n12	-16.6	i	1.0	6.2	6.2	7.8	-1.6	2.3
COc1cc(/C=N/n2nnnc2N)cc(Cl)c1OC	/	i	2.8	-1.7	20.5	-1.6	/	-9.3
C=CCSc1nc(C)c(Cc2cccc3ccccc23)c(=O)[nH]1	-12.4	i	-3.5	-1.6	13.2	8.6	-16.5	/
N#Cc1cnc(NCc2ccc(Cl)cc2Cl)nc1	-13.4	i	2.6	-1.3	-0.6	-3.5	-13.2	-13.7
CC(=O)N1c2ccccc2[C@H](C)[C@H]1C	/	/	2.0	5.4	-35.1	-14.8	/	-7.6
Cc1ccccc1NC(=S)N(CCCN1CCCCC1)Cc1ccco1	-9.5	i	-0.9	-1.6	10.8	-11.2	-1.6	-18.4
C/C(=N\OC(=O)c1ccc(Cl)c(Cl)c1)c1sc(C)nc1C	-14.1	i	2.2	7.3	/	-12.1	-3.8	-12.9
CC(Oc1cccc(F)c1)C(=O)/C=C\N(C)C (stereo unspecified)	7.0	i	-4.2	1.6	-142.5	2.1	-4.0	-7.7
Cc1[nH]c2ccccc2c1C(=O)C(=O)N1CCN(c2ccccc2F)CC1	-6.8	i	3.2	-1.1	-1.6	3.9	-2.6	11.6
COCC(C)N1CCC(n2nccc2NC(=O)CCCc2ccccc2)CC1 (stereo unspecified)	11.4	i	-4.6	-0.7	-8.9	-10.2	10.1	-10.8
CC(C)CNC(=O)C1(C)CCCN1Cc1ccc(S(C)(=O)=O)cc1 (stereo unspecified)	/	/	4.7	9.0	-16.8	/	/	-1.5
COc1ccc(CCc2nc(-c3cccs3)no2)cc1	-5.2	i	-0.2	-1.7	-47.5	1.2	14.0	-11.8
C/C(=N\NC(=O)C1CC1)c1cccnc1	-3.7	i	3.2	6.6	/	-5.6	-1.2	/
S=C1c2ccccc2CN1c1ccccc1	38.0	i	-3.0	-5.4	-61.2	-0.4	-2.5	-28.4
O=C(Nc1ccc([N+](=O)[O-])cc1)c1cccc(S(=O)(=O)Nc2ccccn2)c1	-4.2	i	1.4	-5.6	18.0	/	0.6	-7.3
COc1ccc(S(=O)(=O)N2CCCCCC2)cc1NC(=O)CCCOc1ccccc1	/	/	5.7	-2.7	10.6	-11.1	/	-10.1
COc1ccc(NC(=O)c2cc3ccccc3oc2=O)cc1	/	/	2.8	2.6	-130.1	/	/	-65.7
O=C(CCC1N=C2c3ccccc3N=C(SCC(=O)NCC3CCCO3)N2C1=O)NCc1ccc(F)cc1 (stereo unspecified)	-10.5	i	-7.0	-1.2	1.8	-26.6	2.3	1.1
NC(=O)CC(NC(=O)c1cccc(Br)c1)c1ccc(NC2CCC2)c([N+](=O)[O-])c1 (stereo unspecified)	-3.8	i	-0.6	-1.0	4.3	-21.3	-3.4	-11.5
CC[n+]1c(C)sc2c(C)cc(C)cc21	-5.3	i	2.0	9.0	-33.4	2.6	-8.4	-4.5
Cn1nnnc1SCC(=O)Nc1ccc(Cl)cn1	5.2	i	-5.1	-1.6	-10.9	-4.2	11.6	-16.1
Cc1cc2oc(=O)cc(CN3CCCCC3C)c2cc1C (stereo unspecified)	7.0	i	-7.4	-0.7	5.3	-3.1	10.5	-6.0
Cc1noc(C)c1C(=O)Nc1nc(C23CC4CC(CC(C4)C2)C3)cs1	1.1	i	-10.0	-20.0	31.6	2.2	-15.1	-12.6
CCn1c(SCC(=O)NCC2CCCO2)nc2c(c1=O)SC(C)C2 (stereo unspecified)	0.5	i	-5.7	0.1	-1.4	-12.0	0.4	-42.8
CC1(C(=O)NC2CCCCCC2)CCC(=O)N1Cc1ccc2c(c1)OCO2 (stereo unspecified)	6.3	i	0.3	-2.4	-88.1	-1.5	-4.3	-7.3
CCOC(=O)c1c(C)n(CCO)c2ccc(O)cc12	-9.7	i	6.5	-0.9	-10.9	-4.0	-9.3	-18.6
Cc1ccc2[nH]cc(CCNC(=O)c3cccnc3)c2c1	1.7	i	1.5	2.4	/	0.7	-6.7	-7.9
Cc1ccc(NC(=O)c2sc3nc(N)c(C#N)cc3c2N)cc1	11.6	i	-5.7	-0.3	22.6	17.4	-0.8	/
Cc1cccc(N2C(=O)CN=C2Nc2nc(C)cc(C)n2)c1	1.2	i	3.3	6.4	2.8	-11.1	-5.2	-18.8
NS(=O)(=O)c1ccc(CNC(=O)/C=C/c2ccccc2[N+](=O)[O-])cc1	-4.0	i	-1.0	4.0	13.6	-4.6	-4.4	/
COC(=O)C1=C(C)N(Cc2ccccc2)C(=NCCc2c[nH]c3ccccc23)N[C@H]1c1ccccc1	/	/	-9.1	-2.0	/	30.0	/	-19.4
Cc1c(C)c2c(OCC(=O)N3CCC(C(=O)O)CC3)cc3c(c2oc1=O)CCC(C)(C)O3	-8.7	i	14.8	-2.2	/	0.8	17.6	-1.8
O=C(NCc1ccncc1)c1ccc(S(=O)(=O)Nc2ccccc2)cc1	/	i	-1.6	-0.4	-9.0	0.7	/	-13.4
O=C1C(=O)N(CNc2ccccn2)c2ccccc21	-5.6	i	0.3	8.2	46.1	14.6	6.7	-19.3
O=C(COc1cccc2ccccc12)NNC(=O)c1cnccn1	2.1	i	4.6	3.8	11.9	-2.9	2.0	-1.7
C=CCc1ccc(OCCOc2cccc(/C=N/n3cnnc3)c2)c(OC)c1	/	i	1.9	-5.4	/	9.8	/	/
CSc1nc2c(c(=O)[nH]c(=O)n2C)n1Cc1ccccc1	-8.8	i	-3.7	-3.2	-0.3	-2.9	9.4	-8.2
CC(=O)Nc1cccc2c1C(=O)N(c1ccccc1C)C2=O	-0.7	i	-6.0	3.0	-4.6	-11.5	16.7	-17.6
Cc1ccc(-n2nnnc2SCC(=O)c2c(N)n(CC(C)C)c(=O)n(C)c2=O)cc1	-5.4	i	3.0	-2.3	58.9*	-13.7	10.9	-13.5
CC(C(=O)c1ccc(-c2ccccc2)cc1)[n+]1cccc(Br)c1 (stereo unspecified)	-17.2	i	5.9	5.8	-7.8	6.8	7.3	-10.5
Cc1nnsc1Sc1cccc(C(F)(F)F)c1	-1.7	i	-2.1	2.0	/	-8.5	-4.8	-2.6
CCCc1cc(=O)[nH]c(SCC(=O)N2CCN(S(=O)(=O)c3ccc(Cl)cc3)CC2)n1	56.0*	i	3.7	4.7	/	13.3	-9.4	/	eIF4H FP inh retest=92.0*;PABP FP inh retest=34.8
Further results.
SMILES	eIF4H FP inh	Rce1 inh	MT1-MMP act inh	MT1-MMP act inh RFP	HIV Env fusion	CSC inhib	PABP FP inh	UUG fidelity	others
O=C(NC1CC1)c1ccc(-c2cnc3cccnn23)cc1	/	/	0.8	-3.2	-4.9	/	/	-20.4
Cc1ccc(C(=O)NC(C)c2ccc(S(N)(=O)=O)cc2)s1 (stereo unspecified)	-0.8	i	-2.1	1.4	9.2	-12.7	4.4	-4.2
COc1ccccc1N(C(C)=O)c1nc(C)cc(C)c1C#N	2.3	i	3.4	5.6	/	-10.1	-2.3	-7.6
N#Cc1c(/N=C/c2cccs2)sc2c1CCC2	5.1	i	-2.3	-0.2	-137.9	-13.8	9.3	-8.9
C#CCNc1ccc([N+](=O)[O-])cc1	-6.7	i	2.3	2.7	16.8	-5.8	-13.0	/
Cc1ccccc1OCc1n[nH]c(=S)n1Cc1ccccc1	-0.3	i	2.9	-14.7	?	12.1	-10.7	-17.4
CN1CC(c2ccc(C#N)cc2)C2(COc3ccccc3C2=O)C12C(=O)Nc1ccccc12 (stereo unspecified)	-16.9	i	2.2	-2.8	24.4	-18.2	0.9	0.9
CC(C)Cn1cnc2c(c(-c3ccccc3)c(-c3ccccc3)n2Cc2ccco2)c1=N	-7.2	i	-13.3	-20.9	-66.8	57.6	-6.7	13.8
COc1cc2c(cc1OC)/C(=C/C(=O)c1ccc(F)cc1)NCC2	-1.4	i	3.2	4.8	-6.3	0.2	-11.7	-8.2
C=CCNS(=O)(=O)c1ccc(OCC(=O)OCC)cc1	15.4	i	-1.6	5.9	/	-24.1	-2.0	-32.5
CSCCC(NC(=O)c1ccccc1)C(=O)N1CCN(C(C)=O)CC1 (stereo unspecified)	/	/	-3.1	1.5	-3.3	/	/	-16.1
CCn1c(SCc2ccccc2Cl)nc2ccccc21	8.4	i	-2.9	-0.1	/	7.4	3.4	-33.3
COC(=O)[C@@]1(Cc2ccccc2)[C@H]2C(=O)N(C)C(=O)[C@H]2[C@H]2CN=C(SCc3ccc(C#N)cc3)N21	/	/	-1.7	4.0	2.8	/	/	-4.6
COC(=O)CSC1=C(C#N)C(c2ccccc2)CC(=O)N1 (stereo unspecified)	-1.8	i	-1.2	-4.8	/	-7.3	-1.7	-1.5
Cc1nc(SCC(=O)NCC2COc3ccccc3O2)c2c(C)c(C)sc2n1 (stereo unspecified)	/	/	5.7	-2.7	1.9	/	/	-5.3
O=C(O)c1cc(NC(=O)c2ccc([N+](=O)[O-])cc2)cc(NC(=O)c2ccc([N+](=O)[O-])cc2)c1	-1.4	i	-1.8	2.2	16.7	-16.3	3.1	3.0
COc1ccc(/C=N/NC(=O)CCn2nc(C)cc2C)cc1O	4.1	i	0.7	5.0	5.9	-5.2	0.8	/
CCOC(=O)C1CCN(C(=O)CCNS(=O)(=O)c2cc(Br)cnc2N)CC1	/	i	-2.0	-2.7	-1.5	-14.4	/	-28.7
CC(C)C(=O)Nc1ccc2oc(-c3cc(F)c(F)cc3Cl)nc2c1	-1.3	i	2.4	-0.6	-129.6	-7.4	0.6	-15.5
CCC1(c2ccccc2)NC(=O)N(CC(=O)Nc2ccc(S(N)(=O)=O)cc2)C1=O (stereo unspecified)	-8.4	i	0.6	1.5	-5.2	-0.2	12.5	-5.8

Compound activity (PubChem)

These rows are one share of the data. The share of hits here may be higher or lower than overall.
